Rango dissoc inh = qHTS Assay for Inhibitors of RanGTP induced Rango (Ran-regulated importin-beta cargo) - Importin beta complex dissociation; Snurportin-1 (Homo sapiens) + GTP-binding nuclear protein Ran (Homo sapiens) + Importin …; Biochemical FRET Rango-importin beta, RanGTP-induced dissociation; Potency, µM (highest dose often 46.1 µM), inactives show at the highest dose activity change, negative = inhibition; hit rate 0.071% among 340,000; AID 540253, 2011; active means falling FRET ratio curve, often poorly fitted, with flat reads before Ran was added; inconclusive means other falling curves, or compound fluorescence or quenching; inactive means flat or rising ratio curve;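 further: potency means the concentration at half of the fitted maximal effect; % of control where 0% means no effect; nearly all actives have a fitted effect of over 45% in size; -100% = wells without RanGTP and RCC1; the record marks most hits as doubtful in a second field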
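Rango (0.1 uM)–importin beta (0.25 uM) complex; RanGTP-RCC1 trigger; 45 min RT; CFP/YFP FRET read.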
miR-21 FLuc = qHTS Assay for Modulators of miRNAs and/orActivators of miR-21. HeLa miR-21 FLuc reporter, luciferase, 48 h. 340,000 tested, under 10 active. Potency, µM (top dose mostly 38.3 µM), without a hit: top-dose reporter change, positive = more light; active = well fitted rising curve with a large enough effect; inconclusive = small, poorly fitted or top-dose-only effect; inactive = no such curve, though single readings can be large or run the other way;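 further: % of control where 0% means no effect; miR-21 action dims this reporter so a rising signal means less miR-21 action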
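Compounds were titrated across several concentrations (up to approximately 40 uM) and incubated 48 hours with HeLa miR-21-FLuc reporter cells (miR-21 target sequence downstream of FLuc, endogenous miR-21). Readout was firefly luciferase luminescence after lytic detection reagent.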
GLA inh pH 4.5 = qHTS Assay for Inhibitors of Human alpha-Galactosidase at pH 4.5; Alpha-galactosidase A (Homo sapiens), P06280; purified enzyme, 4-MU-alpha-Gal fluorescence, pH 4.5; activity change, negative = inhibition, % at 105 µM; 230,000 tested, under 10 active; AID 1467, 2008; inconclusive = small, poorly fitted or top-dose-only inhibition, or a rising curve; inactive = flat fitted curve, though single readings scatter; no compound was filed as active;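 further: 0% = full activity with enzyme and -100% = basal without enzyme; dose as in the result columns while the protocol names 77 µM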
Target sequence (P06280 whole entry, looked up): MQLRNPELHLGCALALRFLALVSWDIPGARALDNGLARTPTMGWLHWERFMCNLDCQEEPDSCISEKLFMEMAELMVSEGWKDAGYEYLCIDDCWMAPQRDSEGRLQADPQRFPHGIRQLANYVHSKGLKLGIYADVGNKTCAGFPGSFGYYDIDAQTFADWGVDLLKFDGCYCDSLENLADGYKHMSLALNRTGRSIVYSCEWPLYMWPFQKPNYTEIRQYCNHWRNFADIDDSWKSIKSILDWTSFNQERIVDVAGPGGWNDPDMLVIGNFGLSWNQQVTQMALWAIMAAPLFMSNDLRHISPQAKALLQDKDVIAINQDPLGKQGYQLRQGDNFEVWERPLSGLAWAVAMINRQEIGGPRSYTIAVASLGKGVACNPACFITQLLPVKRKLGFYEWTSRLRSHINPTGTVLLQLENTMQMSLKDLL
Rango complex inh = qHTS Assay for Inhibitors of Rango (Ran-regulated importin-beta cargo) - Importin beta complex formation; Potency, µM (series often up to 92.2 µM), for inactives: top-dose inhibition of complex formation; Importin subunit beta-1 (Homo sapiens), Q14974; Rango CFP/YFP FRET sensor + importin beta, 45 min; hit rate 0.031% among 340,000; active = rising FRET ratio curve, often small or poorly fitted; inconclusive = mostly compound fluorescence or quenching in the first reads; inactive = flat curves in all reads;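 further: potency means the concentration at half of the fitted maximal effect; 0% = DMSO wells and 100% = buffer wells lacking importin beta; nearly all actives have a fitted effect of over 15% in size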
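Inhibition scored from the CFP 486 nm/YFP 530 nm FRET ratio 45 min after adding 0.125 microM importin beta to 50 nM Rango biosensor preincubated 5 min with compound (room temperature, PBS with DTT, Tween-20, BSA). No-importin wells as positive control.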
Active calls of the source: *; & = joins results of further samples.

Results for Cn1c(=O)[nH]c(=O)c2c1nc(Sc1ccccc1)n2CCc1ccccc1 ?
Rango dissoc inh: inconclusive; miR-21 FLuc: 0%; GLA inh pH 4.5: -1; Rango complex inh: -0.4%

How did CNCCOc1ccccc1-c1ccccc1 do in these assays?
Rango dissoc inh: -15%; miR-21 FLuc: 0%; GLA inh pH 4.5: 5; Rango complex inh: 12%

What do the screens show for `C=C(C1=CCN(S(=O)(=O)C(C)(C)C)[C@@H]1CCO)c1ccccc1`?
Rango dissoc inh: 11%; Rango complex inh: 3.2%

How did COc1ccc(CCC(=O)NCc2ccccc2OC)cc1 do in these assays?
Rango dissoc inh: 12%; miR-21 FLuc: 0%; Rango complex inh: 2.6%

What do the screens show for `Cc1ccccc1-c1nc(-c2ccc(NC(=O)c3ccc4c(c3)OCO4)cc2)no1`?
Rango dissoc inh: 7%; miR-21 FLuc: -34%; GLA inh pH 4.5: 8; Rango complex inh: -3.1%

Results for CCN(CC)S(=O)(=O)c1ccc(C(=O)Nc2nnc(C(C)C)s2)cc1 ?
Rango dissoc inh: 0%; miR-21 FLuc: -6%; GLA inh pH 4.5: 5; Rango complex inh: 0.5%

How did COc1ccc(C(=O)Oc2c(OC)cc(C(=S)N3CCOCC3)cc2OC)cc1OC do in these assays?
Rango dissoc inh: -15%; miR-21 FLuc: -7%; Rango complex inh: -0.1%

How did CC(=O)NS(=O)(=O)c1ccc(N=c2ssc3c2-c2cc(C)ccc2NC3(C)C)cc1 do in these assays?
Rango dissoc inh: 5%; miR-21 FLuc: -5%; GLA inh pH 4.5: -3; Rango complex inh: 7.2%

How did Cc1ccc(OCC(=O)N2CCN(C(=O)CCC3CCCC3)CC2)cc1 do in these assays?
Rango dissoc inh: -10%; miR-21 FLuc: -3%; GLA inh pH 4.5: -4; Rango complex inh: 0.9%

What do the screens show for `O=C(O)Cn1cnc2scc(-c3cccs3)c2c1=O`?
Rango dissoc inh: -6%; miR-21 FLuc: -2%; GLA inh pH 4.5: 5; Rango complex inh: 4.5%

How did O=C(Nc1ccc2nc3n(c(=O)c2c1)CCCCC3)c1cc([N+](=O)[O-])ccc1F do in these assays?
Rango dissoc inh: 11%; miR-21 FLuc: inconclusive; Rango complex inh: 5.1%

How did O=C(Nc1ccccc1C(=O)O)c1cccc(F)c1 do in these assays?
Rango dissoc inh: 24%; Rango complex inh: -1.5%

What do the screens show for `Cc1ccc(C(C)(C)C)cc1S(=O)(=O)Nc1cccc(S(=O)(=O)NC2=NCCC2)c1`?
Rango dissoc inh: -10%; miR-21 FLuc: -4%; GLA inh pH 4.5: 2; Rango complex inh: 0.8%

What do the screens show for `O=C(COC(=O)c1ccccn1)Nc1ccccc1OC(F)F`?
Rango dissoc inh: -7%; miR-21 FLuc: 2%; GLA inh pH 4.5: 10; Rango complex inh: 0.5%

Results for CC(Oc1ccccc1)c1ccnc(N)n1 (configuration not stated) ?
Rango dissoc inh: -9%; miR-21 FLuc: -20%; GLA inh pH 4.5: -19; Rango complex inh: -0.8%

How did CCc1ccccc1N(CC(=O)N1CCN(c2ccc(F)cc2)CC1)S(C)(=O)=O do in these assays?
Rango dissoc inh: -3%; miR-21 FLuc: -2%; GLA inh pH 4.5: 8; Rango complex inh: -1.0%

How did CCN(C(=O)COC(=O)COc1ccc2c(C)cc(=O)oc2c1)C1CCS(=O)(=O)C1 (configuration not stated) do in these assays?
Rango dissoc inh: 5%; miR-21 FLuc: -3%; GLA inh pH 4.5: 9; Rango complex inh: -0.4%

Results for COc1ccccc1NC(=O)c1ccc(NC(=O)CN(C)Cc2ccccc2F)cc1 ?
Rango dissoc inh: 33%; miR-21 FLuc: -8%; GLA inh pH 4.5: -3; Rango complex inh: 14%

Results for C=CCN(c1ccccc1)S(=O)(=O)c1cccc(C(=O)N2CCN(c3ncccn3)CC2)c1 ?
Rango dissoc inh: 1%; Rango complex inh: -3.3%

Results for Cc1ccc(NC(=O)CN2C(=O)NC3(CCCCC3C)C2=O)cc1S(=O)(=O)N1CCCCC1 (configuration not stated) ?
Rango dissoc inh: 6%; Rango complex inh: 0.8%

What do the screens show for `CC(C)CC(NS(=O)(=O)c1cccc(C(=O)O)c1)C(=O)O` (configuration not stated)?
Rango dissoc inh: -9%; miR-21 FLuc: -2%; GLA inh pH 4.5: 1; Rango complex inh: -2.1%

Results for COc1ccc(N2C(=O)C(Cl)=C(NCc3ccccc3)C2=O)cc1 ?
Rango dissoc inh: -8%; miR-21 FLuc: -6%; GLA inh pH 4.5: 6; Rango complex inh: 1.9%

How did O=C(COc1ccccc1Cl)NCCNC(=O)c1cnccn1 do in these assays?
Rango dissoc inh: 10%; miR-21 FLuc: -3%; Rango complex inh: 3.3%

Results for CN(CCc1ccccn1)C(=O)CCC1CCCN(C(=O)NC2CCCCC2)C1 (configuration not stated) ?
Rango dissoc inh: 12%; miR-21 FLuc: -2%; GLA inh pH 4.5: 4; Rango complex inh: -0.5%

Results for COc1cc(/C=N/NC(=O)C(N)=O)ccc1OC(=O)c1cccs1 ?
Rango dissoc inh: 17%; miR-21 FLuc: -1%; GLA inh pH 4.5: 12; Rango complex inh: -0.3%

How did CC1CCN(C(=S)Nc2ccc(F)cc2)CC1 do in these assays?
Rango dissoc inh: 9%; miR-21 FLuc: -13%; GLA inh pH 4.5: 3; Rango complex inh: 0.8%

How did Cc1cc(Cl)c2oc(C(=O)N(C)CCc3cnn(C)c3)c(C)c2c1 do in these assays?
Rango dissoc inh: 2%; miR-21 FLuc: -27%; Rango complex inh: 0.9%

How did Cc1cccc(NC(=O)c2nc[nH]c2C(=O)N2CCC(C)CC2)c1 do in these assays?
Rango dissoc inh: 5%; Rango complex inh: 7.3%

How did CCOC(=O)Cn1c(CN(Cc2ccccc2)Cc2ccccc2)nc2c1c(=O)[nH]c(=O)n2C do in these assays?
Rango dissoc inh: 0%; miR-21 FLuc: 4%; GLA inh pH 4.5: -14; Rango complex inh: -1.6%

What do the screens show for `NCCSSCCN`?
Rango dissoc inh: -8%; miR-21 FLuc: -1%; GLA inh pH 4.5: 4&4&5; Rango complex inh: -7.3%

What do the screens show for `CCCCn1c(N)c(N(CC)C(=O)C2CCCC2)c(=O)[nH]c1=O`?
Rango dissoc inh: 7%; Rango complex inh: 2.2%

What do the screens show for `O=C(NCc1ccco1)C(c1ccncc1)N(C(=O)Cc1cccs1)c1ccccc1` (configuration not stated)?
Rango dissoc inh: 10%; miR-21 FLuc: 4%; GLA inh pH 4.5: 5; Rango complex inh: -1.3%

How did Cc1cc(C)nc(SCc2nnc(SCC#N)n2-c2cccc(Cl)c2)n1 do in these assays?
Rango dissoc inh: 12%; miR-21 FLuc: -19%; GLA inh pH 4.5: -3; Rango complex inh: -2.8%

What do the screens show for `CCOC(=O)c1cc(C(C)(C)C)nc(SC)c1C#N`?
Rango dissoc inh: 2%; miR-21 FLuc: -3%; GLA inh pH 4.5: -10; Rango complex inh: -0.8%

What do the screens show for `COc1cc(CN2CCCCC2C(=O)Nc2ccc(Oc3ccccc3)nc2)ccc1O` (configuration not stated)?
Rango dissoc inh: -24%; miR-21 FLuc: -22%; Rango complex inh: -1.1%

How did CCOC(=O)CCC(NC(=O)c1ccc(Nc2nc3ccccc3nc2C(=O)OCC)cc1)C(=O)OCC (configuration not stated) do in these assays?
Rango dissoc inh: 2%; Rango complex inh: 2.4%

What do the screens show for `CCCCC1(C(=O)OCC)NC(c2ccc(O)cc2)C2C(=O)N(c3ccccc3)C(=O)C21` (configuration not stated)?
Rango dissoc inh: 8%; miR-21 FLuc: 0%; Rango complex inh: -1.7%

How did COc1ccc(/C=C/C(=O)N(Cc2cccs2)C2CCS(=O)(=O)C2)cc1 (configuration not stated) do in these assays?
Rango dissoc inh: 2%; miR-21 FLuc: -14%; GLA inh pH 4.5: -3; Rango complex inh: -2.1%

Results for CCCCn1cnc2c([nH]c3cc(OC)ccc32)c1=O ?
Rango dissoc inh: 2%; miR-21 FLuc: -23%; GLA inh pH 4.5: -9; Rango complex inh: -1.9%

How did COc1cc([N+](=O)[O-])cc(/C=N/NC(=O)C(C)Nc2cccc(C)c2)c1O (configuration not stated) do in these assays?
Rango dissoc inh: 6%; miR-21 FLuc: 0%; GLA inh pH 4.5: -12; Rango complex inh: -4.1%

Results for CCN(CC(=O)Nc1ccc2c(c1)OCCO2)C(=O)c1cc(Cl)nc2ccccc12 ?
Rango dissoc inh: 1%; Rango complex inh: 1.0%

What do the screens show for `CCN1CCN(c2nc(Nc3cccc(OC)c3)nc(N)c2[N+](=O)[O-])CC1`?
Rango dissoc inh: 24%; miR-21 FLuc: 24%; Rango complex inh: 0.8%

How did COc1ccc(-c2nnc(SC(C)C(=O)NNC(=O)c3ccc(C)cc3)o2)cc1 (configuration not stated) do in these assays?
Rango dissoc inh: 4%; miR-21 FLuc: -12%; GLA inh pH 4.5: -1; Rango complex inh: 1.0%

How did CC(C)(C)c1ccc(/C=N/NC(=O)C2CCCC2)cc1 do in these assays?
Rango dissoc inh: -22%; miR-21 FLuc: -66%; Rango complex inh: -1.6%

Results for COc1ccc(S(=O)(=O)Nc2ccccc2OC)cc1NC(=O)CC1CC2CCC1C2 (configuration not stated) ?
Rango dissoc inh: -6%; miR-21 FLuc: 14%; GLA inh pH 4.5: -3; Rango complex inh: 3.7%

Random excerpt: 5 entries already listed
Results for COc1ccc(S(=O)(=O)Nc2ccccc2OC)cc1NC(=O)CC1CC2CCC1C2 (configuration not stated) ?
Rango dissoc inh: -6%; miR-21 FLuc: 14%; GLA inh pH 4.5: -3; Rango complex inh: 3.7%

Results for COc1ccccc1NC(=O)c1ccc(NC(=O)CN(C)Cc2ccccc2F)cc1 ?
Rango dissoc inh: 33%; miR-21 FLuc: -8%; GLA inh pH 4.5: -3; Rango complex inh: 14%

What do the screens show for `C=C(C1=CCN(S(=O)(=O)C(C)(C)C)[C@@H]1CCO)c1ccccc1`?
Rango dissoc inh: 11%; Rango complex inh: 3.2%

How did CC1CCN(C(=S)Nc2ccc(F)cc2)CC1 do in these assays?
Rango dissoc inh: 9%; miR-21 FLuc: -13%; GLA inh pH 4.5: 3; Rango complex inh: 0.8%

How did CNCCOc1ccccc1-c1ccccc1 do in these assays?
Rango dissoc inh: -15%; miR-21 FLuc: 0%; GLA inh pH 4.5: 5; Rango complex inh: 12%

Carrying on.
How did CCC(C)(C)N(C(=O)CCC(=O)Nc1cc(C)on1)C(C(=O)NC(C)(C)C)c1ccc(OC)cc1 (configuration not stated) do in these assays?
Rango dissoc inh: -26%; miR-21 FLuc: -1%; Rango complex inh: -0.4%

Results for Cc1sc(NC(=O)c2cccs2)c(C(=O)OC(C)C)c1C ?
Rango dissoc inh: 32%; miR-21 FLuc: -8%; GLA inh pH 4.5: 3; Rango complex inh: -5.1%

What do the screens show for `CCNS(=O)(=O)c1ccc(CCC(=O)N2CCCC2)cc1`?
Rango dissoc inh: -4%; miR-21 FLuc: -2%; Rango complex inh: 0.1%

Results for CCCCc1nc(N2CCOCC2)c(C#N)c2c1COC(C)(C)C2 ?
Rango dissoc inh: 5%; miR-21 FLuc: -2%; GLA inh pH 4.5: 2; Rango complex inh: 1.9%

What do the screens show for `CCCc1cc(N2CCN(c3ccccn3)CC2)n2nc(C)c(-c3ccccc3)c2n1`?
Rango dissoc inh: 20%; miR-21 FLuc: -2%; GLA inh pH 4.5: 2; Rango complex inh: 1.3%

What do the screens show for `CCOC(=O)c1c(NC(=O)c2ccc(N3C(=O)[C@@H]4[C@H](C3=O)[C@H]3C=C[C@@H]4C3)cc2)sc2c1CC(C)CC2` (some centres not stated)?
Rango dissoc inh: -4%; miR-21 FLuc: 0%; GLA inh pH 4.5: -1; Rango complex inh: 1.1%

How did O=C(CCC(=O)N1CCCCC1)Nc1ccc(Cl)c(Cl)c1 do in these assays?
Rango dissoc inh: 7%; miR-21 FLuc: -1%; Rango complex inh: 0.7%

Screening results: PubChem BioAssay, National Center for Advancing Translational Sciences (NCATS)

These rows are one share of the data, so the mix of outcomes need not match the whole.
